INS promoter inh: inhibitors of insulin promoter-driven GFP, primary screen, imaging, TRM-6 cells (human fetal islet line), eGFP reporter, cell count; inhibition, % at 2 µM; hit rate 0.9% among 130,000; reporter expression induced with tamoxifen; AID 1273, 2008;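 active = inhibition above the mean plus 3 SD, with well images judged a real hit on visual review, cut at about 60% in these data, passing the limit was not always enough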
HSV replic up: enhancers of HSV replication in host cells, fold increase, host cell viability. AID 1956, 2009. hit rate 0.005% among 220,000. HSV replication augmentation in cells. maximum fold increase;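 active = peak rise of 1.5-fold or more in the series; tested in PC3 cells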;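 also: first round at 10 µM; read as green reporter fluorescence; hits show the peak of a series up to 25 µM; 1 = signal of infected wells without compound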
RGS16-Gao: modulators of RGS16 binding to Galphao, primary screen, biochemical, human proteins, multiplexed bead flow cytometry; Regulator of G-protein signaling 16 (Homo sapiens) + Guanine nucleotide-binding protein …; bead-based flow cytometry RGS16-Galphao binding, fluorescence; actives lie on both sides; hit rate 0.38% among 220,000; binding response (% of control), % at 10 µM;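 active = below 25% or above 175%, edge rows of some plates excepted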;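 also: Galphao activated by GDP with aluminum fluoride before binding; 100% = wells without compound and 0% = beads without RGS; some results beyond the cut were filed as inactive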
Target sequence (O15492 whole entry, looked up): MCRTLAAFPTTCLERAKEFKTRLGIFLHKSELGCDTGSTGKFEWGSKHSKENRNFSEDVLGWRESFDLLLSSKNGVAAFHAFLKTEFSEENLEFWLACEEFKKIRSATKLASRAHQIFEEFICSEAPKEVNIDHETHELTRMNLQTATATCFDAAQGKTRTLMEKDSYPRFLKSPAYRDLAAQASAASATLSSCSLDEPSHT
Target sequence (P09471 whole entry, looked up): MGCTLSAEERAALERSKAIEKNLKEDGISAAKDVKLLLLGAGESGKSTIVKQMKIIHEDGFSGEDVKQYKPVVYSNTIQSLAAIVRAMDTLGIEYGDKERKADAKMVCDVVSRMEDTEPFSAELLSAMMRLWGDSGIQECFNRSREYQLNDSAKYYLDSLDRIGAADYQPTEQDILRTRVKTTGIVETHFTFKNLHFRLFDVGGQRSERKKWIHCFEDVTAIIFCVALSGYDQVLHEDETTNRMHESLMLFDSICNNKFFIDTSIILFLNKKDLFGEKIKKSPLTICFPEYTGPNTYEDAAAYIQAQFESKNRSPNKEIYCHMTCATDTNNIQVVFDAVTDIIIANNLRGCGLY
GALR2 ag: GALR2 receptor agonists, primary screen, cell-based; GALR2-expressing cells, agonist activation read-out; activation, %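 (tested at 5 µM)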; hit rate 0.48% among 140,000;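 active = above mean plus 3 SD of all compounds, about 5% in these data, not always enough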;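 also: 0% = vehicle buffer wells and 100% = reference agonist at full effect; tested in CHO reporter cells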
PKD1 kinase inh: inhibitors of human PKD1 kinase, biochemical, fluorescence polarization. PKD1 kinase fluorescence polarization assay. inhibition, %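 (about 10 µM by stock and volumes)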. hit rate 0.056% among 200,000. AID 797, 2007;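 active = inhibition of 50% or more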;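 also: controls were vehicle for no effect and a reference inhibitor for full effect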
INS promoter inh cell count: recorded beside INS promoter inh, whose call it bears; normalized cell count, %; measured here: cell count, toxicity; reference of the scale not given here;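 cells exposed to compound for 48 h; stained nuclei by imaging scaled within each plate; lower means fewer cells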
HSV replic up primary fold: second read-out of HSV replic up, no call of its own (marks repeat the call); fold increase; compound at 10 µM; measured here: primary screen fold increase 10 uM; tested in PC3 cells;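 GFP signal in the first replicate; 1 = infected wells without compound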
Starred values were filed as active, the others as inactive; i = inactive; nt = not tested or not shown; & = joins results of further samples.

Letter code – A = INS promoter inh; B = INS promoter inh cell count; C = HSV replic up; D = HSV replic up primary fold; E = RGS16-Gao; F = GALR2 ag; G = PKD1 kinase inh
Compound: NS(=O)(=O)c1cc2c(cc1C(F)(F)F)NC(Cc1ccccc1)NS2(=O)=O (stereo unspecified)
  A: 23	B: 123	C: i	D: 0.86	E: 102	F: 0.1	G: -14

Compound: O=C1NCC2(CCN(CCc3ccccc3)CC2)O1
  A: nt	B: nt	C: i	D: 0.8	E: 102	F: nt	G: nt

Compound: COc1cc2nc(N3CCN(C(=O)C4COc5ccccc5O4)CC3)nc(N)c2cc1OC (stereo unspecified)
  A: 27	B: 92	C: i	D: 0.7	E: 106	F: 0.6	G: -3

Compound: Cc1nnc(NS(=O)(=O)c2ccc(N)cc2)s1
  A: 24	B: 182	C: i	D: 0.8	E: 104	F: -0.3	G: -5

Compound: CC(=O)[C@H]1CC[C@H]2[C@@H]3C[C@H](C)C4=CC(=O)CC[C@]4(C)[C@H]3[C@@H](O)C[C@]12C
  A: -18	B: 131	C: i	D: 0.71	E: 102	F: 1.4	G: -4

Compound: c1ccc2c(CC3=NCCN3)cccc2c1
  A: 22	B: 123	C: i	D: 0.92	E: nt	F: -1.5	G: -13

Compound: C[C@H]1COc2c(N3CCN(C)CC3)c(F)cc3c(=O)c(C(=O)O)cn1c23
  A: nt	B: nt	C: i	D: 0.76	E: 108	F: nt	G: nt

Compound: C[C@]12CC[C@H]3[C@@H](CCC4=CC(=O)CC[C@@]43C)[C@@H]1CC[C@@H]2C(=O)CO
  A: 35	B: 94	C: i	D: 1.2	E: nt	F: 0.1	G: -12

Compound: Nc1cc(-c2ccncc2)c[nH]c1=O
  A: 14	B: 44	C: i	D: 1	E: 124	F: -2.6	G: -12

Compound: CN1CCC(=C2c3ccccc3CCc3sccc32)CC1
  A: nt	B: nt	C: i	D: 0.71	E: 106	F: nt	G: nt

Compound: CC1=NN(c2ccccc2)C(=O)C1
  A: 0	B: 156	C: i	D: 0.88	E: 101	F: -1.1	G: -2

Compound: CC(C)Cn1cnc2c1c(=O)n(C)c(=O)n2C
  A: nt	B: nt	C: i	D: 0.89	E: 104	F: nt	G: -1

Compound: CCOc1ccc(S(=O)(=O)N2CCCCCC2)c2ccccc12
  A: -66	B: 79	C: i	D: 1.2	E: 94	F: -1.3	G: -6

Compound: COc1ccc(CN(CCN(C)C)c2ccccn2)cc1
  A: -14	B: 125	C: i	D: 0.73	E: 104	F: -0.1	G: -7

Compound: CCCn1ncc(CN2CCCC(C(=O)c3cccc(OC(C)C)c3)C2)c1C (stereo unspecified)
  A: nt	B: nt	C: i	D: 0.93	E: 101	F: nt	G: nt

Compound: O=C1N(c2ccccc2)c2ccccc2C1(Cc1ccncc1)Cc1ccncc1
  A: nt	B: nt	C: i	D: 0.92&0.84	E: 100	F: nt	G: nt

Compound: COc1ccccc1OCC(O)COC(N)=O (stereo unspecified)
  A: 24	B: 175	C: i	D: 0.76	E: 105	F: -1.2	G: 0

Compound: Cc1cc2c(s1)Nc1ccccc1N=C2N1CCN(C)CC1
  A: nt	B: nt	C: i	D: 0.86	E: 98	F: nt	G: nt

Compound: Cc1coc2c1C(=O)C(=O)c1c-2ccc2c1CCCC2(C)C
  A: nt	B: nt	C: i	D: 0.72	E: 101	F: nt	G: 10

Compound: CN(C)CCCN1c2ccccc2Sc2ccccc21
  A: 19	B: 126	C: i	D: 0.78	E: 103	F: -0.6	G: 4

Some of the compounds tested; the hit share may differ from the screen's.
